Screening data (PubChem)
FGF22 binding = binders of human FGF22 protein, primary screen, FGF22 synaptogenesis inhibitor project, biophysical, thermal shift, single point; 340,000 compounds, 1.5% hits; Fibroblast growth factor 22 (Homo sapiens), Q9HCT0; calls only at 9.99 µM; AID 651658, 2012; recombinant FGF22 thermal shift, SYPRO orange fluorescence; percent of sucrose octasulfate shift, DMSO zero;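 active means melting point raised past a set limit in the mean and every replicate; three in four hits are not shown here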
Target sequence (Q9HCT0 whole entry, looked up): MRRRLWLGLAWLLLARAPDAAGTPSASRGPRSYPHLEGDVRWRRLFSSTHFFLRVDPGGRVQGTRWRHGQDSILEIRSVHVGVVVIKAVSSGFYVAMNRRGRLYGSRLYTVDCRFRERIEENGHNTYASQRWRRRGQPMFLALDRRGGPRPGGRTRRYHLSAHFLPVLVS
Ecoli rRNA inh = reduced GFP signal of wild-type E. coli, primary screen, bacterial rRNA inhibitor project, GFP/RFP fluorescence, OD600, single point; E. coli WT GFP vs humanized-ribosome RFP mutants, 24 h; hits give low values; DMSO median 0, no signal -100; GFP signal change (wild-type ribosome), % (concentration not given with the values); 350,000 compounds, 1.6% hits;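 active means significant combined selectivity score with lowered wild-type GFP, culture density cut under 30%, mutant RFP and density less affected; inactive means any of these conditions unmet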; further: one replicate is shown; some compounds called inactive have numbers as strong as hits
Ecoli rRNA inh OD600 = second read-out of Ecoli rRNA inh, no call of its own (marks repeat the call); OD600 change, %; measured here: OD600 growth;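 optical density of the mix in the first replicate; 0 = DMSO median and -100 = no signal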
Ecoli rRNA inh RFP = further read-out of Ecoli rRNA inh, marked with its call; RFP signal change, %; measured here: RFP humanized mutant strains;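 first replicate; 0 = DMSO median and -100 = no signal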
The depositor's hits bear a star; i = inactive. A portion of the library; the hit share may differ from the screen's.

SMILES	FGF22 binding	Ecoli rRNA inh	Ecoli rRNA inh OD600	Ecoli rRNA inh RFP
CC(C)CCNC(=O)[C@@H](Cc1ccccc1)NC(=O)[C@H]1O[C@@H](n2ccc(=O)[nH]c2=O)[C@H](O)[C@@H]1O	i	17	-2	2.2
COc1ccc(S(=O)(=O)Nc2ccc3c(c2)C(=O)N([C@@H](C)CO)C[C@@H](C)[C@H](CN(C)CC2CCCCC2)OCCCC[C@@H](C)O3)cc1	i	9	6	1.9
Cc1noc(C)c1NC(=O)Nc1ccc2c(c1)C(=O)N([C@H](C)CO)C[C@H](C)[C@@H](CN(C)Cc1ccc3c(c1)OCO3)OCCCC[C@@H](C)O2	i	4	10	0.5
CC(=O)Nc1ccc2c(c1)C(=O)N(C)[C@H]1CC[C@H](CC(=O)N3CCc4ccccc4C3)O[C@H]1CO2	i	1	0	0.6
COCC(=O)Nc1ccc2c(c1)[C@@H]1C[C@@H](CC(=O)NCc3ccc(Cl)cc3)O[C@H](CO)[C@@H]1O2	i	-3	2	-0.9
C[C@@H]1CCCCO[C@@H](CN(C)CC2CC2)[C@@H](C)CN([C@@H](C)CO)C(=O)c2cc(NS(=O)(=O)c3cccs3)ccc2O1	i	3	-2	-2.7
COc1ccc(S(=O)(=O)N(C)C[C@@H]2OCCCC[C@H](C)Oc3ccc(NC(=O)Nc4ccccc4)cc3C(=O)N([C@H](C)CO)C[C@H]2C)cc1	i	2	10	-0.9
C[C@@H]1CN([C@@H](C)CO)C(=O)Cc2cc(NC(=O)Nc3ccc4c(c3)OCO4)ccc2O[C@@H]1CN(C)S(=O)(=O)c1cn(C)cn1	i	1	1	-1.8
C[C@@H]1CN(c2ccc(N3CCN(C(=O)OC(C)(C)C)C[C@@H]3C)cc2C#N)CCN1Cc1ccccc1	i	0	6	-3.9
CC(C)(C)N1C(=O)c2ccccc2NC(=O)C1C(=O)NCCc1ccccc1F (centres undefined)	i	7	13	2.9
Cc1noc(C)c1NC(=O)Nc1ccc2c(c1)CC(=O)N([C@H](C)CO)C[C@H](C)[C@H](CN(C)Cc1ccc(Oc3ccccc3)cc1)O2	i	3	-21	2.0
O=C(Nc1ccc2c(c1)OCCO2)C(c1ccccc1F)n1c(=O)c(-c2ccco2)nc2ccccc21 (centres undefined)	i	5	11	0.8
COc1ccc(NC(=O)Nc2ccc3c(c2)C(=O)N([C@H](C)CO)C[C@@H](C)[C@@H](CN(C)C(=O)Nc2ccc4c(c2)OCO4)O3)cc1	i	1	2	0.7
C[C@@H]1CCCCO[C@@H](CN(C)C(=O)Cc2ccccc2)[C@H](C)CN([C@H](C)CO)C(=O)c2cc(NC(=O)C3CCCCC3)ccc2O1	i	-1	-2	2.3
C=CCn1c(=O)n(CC=C)c(=O)n(CC=C)c1=O	i	6	9	1.1
O=C(CC1CC1)Nc1ccc2c(c1)[C@H]1C[C@@H](CC(=O)N3CCOCC3)O[C@@H](CO)[C@H]1O2	i	-2	-3	0.9
Cc1cc(C)cc(NC(=O)Nc2ccc3c(c2)C(=O)N(C)[C@H]2CC[C@@H](CC(=O)O)O[C@@H]2CO3)c1	i	-1	-4	1.9
Cc1ccc(S(=O)(=O)Nc2ccc3c(c2)CC(=O)N([C@@H](C)CO)C[C@@H](C)[C@@H](CN(C)S(=O)(=O)c2ccccc2)O3)cc1	i	-2	-10	0.2
COC(=O)N1Cc2ccnnc2CC1c1ccccc1-c1ccc(OC)cc1 (centres undefined)	i	9	22	2.6
C=CCN1C(=O)c2n[nH]c(C(C)C)c2C1c1ccc2c(c1)OCO2 (centres undefined)	i	8	24	7.1
N#Cc1ccc(-c2ccc(C3[C@H]4CNC[C@@H]3N4C(=O)Nc3ccc(Cl)cc3)cc2)cc1 (some centres undefined)	i	-59	-77	-13
COc1cccc(S(=O)(=O)N2CC[C@@H]3[C@H]2c2cc(C#Cc4cccnc4)ccc2N(C)[C@H]3CO)c1	i	-4	16	1.4
C[C@@H]1CCCCO[C@@H](CN(C)S(=O)(=O)c2ccc(F)cc2)[C@@H](C)CN([C@H](C)CO)C(=O)c2cc(NC(=O)Cc3ccccc3)ccc2O1	i	4	6	-2.2
COc1ccc(S(=O)(=O)Nc2ccc3c(c2)C(=O)N([C@@H](C)CO)C[C@@H](C)[C@@H](CN(C)Cc2ccccc2)OCCCC[C@@H](C)O3)cc1	i	4	-9	4.4
COC(=O)C1=C(C)N(Cc2ccccc2C(F)(F)F)C(=NCC2CC2)NC1c1ccc(C(F)(F)F)cc1 (centres undefined)	i	-44	-74	-15
C[C@H](CO)N1C[C@H](C)[C@H](CN(C)S(C)(=O)=O)OCCCC[C@H](C)Oc2ccc(NC(=O)c3ccncc3)cc2C1=O	i	1	4	-2.8
Cc1noc(C)c1NC(=O)Nc1ccc2c(c1)C(=O)N([C@H](C)CO)C[C@H](C)[C@@H](CN(C)Cc1ccc3c(c1)OCO3)OCCCC[C@H](C)O2	i	-1	1	0.6
COc1ccc2c3c(n(C)c2c1)[C@@H](CO)N(C(=O)c1ccc(F)cc1)CC31CCN(C(=O)c2ccc(F)cc2)CC1	i	-7	-10	5.4
CN1C(=O)c2cc(NC(=O)c3cccc(F)c3)ccc2OC[C@@H]2O[C@@H](CC(=O)O)CC[C@H]21	i	5	1	-1.3
O=C(Nc1ccc(C(F)(F)F)cc1)N1C[C@@H]2N[C@H](C1)C2c1ccc(-c2cccnc2)cc1 (some centres undefined)	i	-60	-77	-16
CC(=O)N1[C@@H]2c3cccc(=O)n3C[C@H]1[C@H](CO)[C@H]2C(=O)NCc1ccc(F)cc1	i	0	7	-0.8
COc1ccccc1C(=O)NC1CCCCN(C)C1=O (centres undefined)	i	6	8	2.5
COc1ccc2c(c1)C(NC(=O)C(F)(F)F)CC21CCCCC1 (centres undefined)	i	18	17	0.2
O=C(NC1CCCC1)[C@@H]1CCCN1C(=O)[C@@H](NS(=O)(=O)c1ccc(F)cc1F)c1ccccc1	i	-10	-7	-2.4
C[C@@H]1CN([C@H](C)CO)C(=O)Cc2cc(NC(=O)Cn3cnnn3)ccc2O[C@H]1CN(C)C(=O)Nc1cccc2ccccc12	i	-4	3	-1.4
C[C@@H]1CN([C@@H](C)CO)C(=O)c2cc(NS(=O)(=O)c3cn(C)cn3)ccc2O[C@@H](C)CCCCO[C@@H]1CN(C)Cc1ccc2c(c1)OCO2	i	2	16	0.1
C[C@@H]1CN([C@@H](C)CO)C(=O)c2cc(NC(=O)Cc3ccccc3)ccc2O[C@@H](C)CCCCO[C@@H]1CN(C)Cc1ccc2c(c1)OCO2	i	2	-2	6.9
COc1ccc(NC(=O)N(C)C[C@H]2OCCCC[C@H](C)Oc3ccc(NS(=O)(=O)c4ccc(OC)cc4)cc3C(=O)N([C@H](C)CO)C[C@@H]2C)cc1	i	-5	-1	-0.9
C[C@@H]1CN([C@H](C)CO)C(=O)Cc2cc(NC(=O)Nc3cccc4ccccc34)ccc2O[C@H]1CN(C)S(=O)(=O)c1cccs1	i	-2	-6	1.7
COc1cccc(C(=O)N[C@@H](Cc2cccnc2)C(=O)N2CCC[C@H]2C(=O)NC2CCCC2)c1	i	6	11	4.5
CC1(C(=O)Nc2ccc3c(c2)OCCO3)CSCC(=O)N1CCCn1ccnc1 (centres undefined)	i	9	3	-0.3
CCCC(=O)Nc1ccc2c(c1)C(=O)N(C)[C@H]1CC[C@@H](CC(=O)N3CCc4ccccc4C3)O[C@@H]1CO2	i	4	2	2.6
Cc1cccc(-c2ccc(O)cc2CN2CCN(c3ncc(Cc4ccccc4)cn3)CC2)c1	i	6	-1	3.1
O=C(C[C@@H]1CC[C@@H]2[C@H](COC[C@@H](O)CN2Cc2nccs2)O1)NCc1ccccc1Cl	i	2	3	0.2
CCCNC(=O)N1C[C@@H]2[C@H](c3ccccc31)[C@@H](CO)N2C(=O)C1CCOCC1	i	4	14	-1.4
O=C1c2ccccc2C2Cc3nnccc3CN12 (centres undefined)	i	22	29	2.1
C[C@@H]1CCCCO[C@@H](CN(C)Cc2ccncc2)[C@H](C)CN([C@H](C)CO)C(=O)c2cc(NC(=O)Nc3ccc(F)cc3)ccc2O1	i	1	-3	-3.2
CN1c2ccc(-c3ccc(F)cc3)cc2[C@H]2[C@H](CCN2C(=O)Nc2ccc(F)cc2)[C@H]1CO	i	-7	14	6.1
COCC(=O)Nc1ccc2c(c1)C(=O)N(C)[C@H]1CC[C@@H](CC(=O)NCc3ccccc3Cl)O[C@H]1CO2	i	-1	1	-1.1
O=C(C[C@H]1CC[C@H]2[C@@H](COC[C@H](O)CN2Cc2ccc(Oc3ccccc3)cc2)O1)N1CCc2ccccc2C1	i	-12	-37	23
C[C@@H]1CN([C@H](C)CO)C(=O)c2cc(NC(=O)Nc3ccc4c(c3)OCO4)ccc2O[C@H]1CN(C)C(=O)Nc1ccccc1	i	4	-5	-2.1
O=C(N[C@H](C(=O)N1CCC[C@H]1C(=O)NCc1ccccc1)c1ccccc1)C1CCCC1	i	7	7	5.0
CN1C(=O)c2cc(NC(=O)c3cccc(F)c3)ccc2OC[C@H]2O[C@H](CC(=O)O)CC[C@H]21	i	3	-1	-2.6
CCNC(=O)C[C@H]1CC[C@H]2[C@@H](COc3ccc(NC(=O)Nc4cccc(OC)c4)cc3C(=O)N2C)O1	i	1	8	4.4
C[C@@H]1CCCCO[C@H](CN(C)Cc2ccc3c(c2)OCO3)[C@H](C)CN([C@H](C)CO)C(=O)c2cc(NC(=O)Cc3ccccc3)ccc2O1	i	-1	-18	6.2
CN1CCN(C(=O)C[C@@H]2C[C@H]3c4cc(NC(=O)Nc5ccccc5F)ccc4O[C@H]3[C@H](CO)O2)CC1	i	0	-2	-2.2
COC(=O)C1=C(C)N(C)C(=NCC2CC2)NC1CCc1ccccc1 (centres undefined)	i	18	21	0.6
C[C@@H]1CCCCO[C@@H](CN(C)S(=O)(=O)c2cccs2)[C@@H](C)CN([C@@H](C)CO)C(=O)c2cc(NC(=O)NC3CCCCC3)ccc2O1	i	0	6	-0.9
COC(=O)C1=C(C)N(Cc2cccc(C(F)(F)F)c2)C(=NCC2CC2)NC1c1cccc(F)c1 (centres undefined)	i	-48	-80	-17
C[C@H](O)[C@@H]1C(=O)N2CCc3c([nH]c4cccc(-c5ccccc5)c34)[C@@H]2C[C@@H]1N(C)C(=O)c1ccco1	i	-23	-18	1.9

Next section:
SMILES	FGF22 binding	Ecoli rRNA inh	Ecoli rRNA inh OD600	Ecoli rRNA inh RFP
NC(=O)c1ncn([C@@H]2O[C@H](C(=O)N[C@H](Cc3ccccc3)C(=O)N3CCN(c4ccc(Cl)cn4)CC3)[C@@H](O)[C@H]2O)n1	i	-12	-1	6.5
C[C@@H]1CCCCO[C@@H](CN(C)CC2CCCCC2)[C@@H](C)CN([C@@H](C)CO)C(=O)c2cc(NS(=O)(=O)c3ccc(Cl)cc3)ccc2O1	i	3	-18	13
Cc1ccc(OC2CCN(C(=O)[C@@H](Cc3ccccc3)NC(=O)[C@H]3O[C@@H](n4ccc(=O)[nH]c4=O)[C@H](O)[C@@H]3O)CC2)cc1	i	-21	-9	0.2
CCNC(=O)[C@H]1[C@H](CO)[C@H]2Cn3c(ccc(-c4cccc(F)c4)c3=O)[C@H]2N1CC1CCOCC1	i	1	5	1.6
Nc1ncnc2c1ncn2[C@@H]1O[C@H](C(=O)N[C@@H](CCc2ccccc2)C(=O)O)[C@@H](O)[C@H]1O	i	8	7	2.6
N#Cc1ccc(OCCCN2CCC(C(O)(c3ccccc3)c3ccccc3)CC2)cc1	i	11	-23	16
CCN=C1NC(c2ccc(Cl)cc2)C(C(=O)OC)=C(C)N1Cc1cccc(C(F)(F)F)c1 (centres undefined)	i	-47	-80	-18
C[C@@H]1CN([C@@H](C)CO)C(=O)c2cc(NC(=O)CCC(F)(F)F)ccc2O[C@@H](C)CCCCO[C@H]1CN(C)C(=O)Nc1cccc2ccccc12	i	1	4	1.7
COc1ccc(CN(C)C[C@@H]2OCCCC[C@@H](C)Oc3ccc(NS(=O)(=O)c4ccc(OC)cc4)cc3C(=O)N([C@H](C)CO)C[C@@H]2C)cc1	i	1	-1	0.7

Complete entries, looked up by structure. Screens in order: FGF22 binding	Ecoli rRNA inh	Ecoli rRNA inh OD600	Ecoli rRNA inh RFP
Nc1ncnc2c1ncn2[C@@H]1O[C@H](C(=O)N[C@@H](CCc2ccccc2)C(=O)O)[C@@H](O)[C@H]1O as listed: i	8	7	2.6
CCN=C1NC(c2ccc(Cl)cc2)C(C(=O)OC)=C(C)N1Cc1cccc(C(F)(F)F)c1 (centres undefined) as listed: i	-47	-80	-18

An excerpt from above in order of molecular weight, ascending:
SMILES	FGF22 binding	Ecoli rRNA inh	Ecoli rRNA inh OD600	Ecoli rRNA inh RFP
Nc1ncnc2c1ncn2[C@@H]1O[C@H](C(=O)N[C@@H](CCc2ccccc2)C(=O)O)[C@@H](O)[C@H]1O	i	8	7	2.6
CCNC(=O)[C@H]1[C@H](CO)[C@H]2Cn3c(ccc(-c4cccc(F)c4)c3=O)[C@H]2N1CC1CCOCC1	i	1	5	1.6
Cc1ccc(OC2CCN(C(=O)[C@@H](Cc3ccccc3)NC(=O)[C@H]3O[C@@H](n4ccc(=O)[nH]c4=O)[C@H](O)[C@@H]3O)CC2)cc1	i	-21	-9	0.2
COc1ccc(CN(C)C[C@@H]2OCCCC[C@@H](C)Oc3ccc(NS(=O)(=O)c4ccc(OC)cc4)cc3C(=O)N([C@H](C)CO)C[C@@H]2C)cc1	i	1	-1	0.7
C[C@@H]1CN([C@@H](C)CO)C(=O)c2cc(NC(=O)CCC(F)(F)F)ccc2O[C@@H](C)CCCCO[C@H]1CN(C)C(=O)Nc1cccc2ccccc12	i	1	4	1.7
